# Screens deposited in PubChem BioAssay by several laboratories.
# eIF4H FP inh: inhibitors of RNA binding by human eIF4H; hit rate 0.94% among 290,000; inhibition, % at 35 µM; Q15056; eIF4H fluorescence polarization binding assay;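 active = 50% or more with normal probe brightness, or confirmed in later tests; about a fifth of its hits are not listed in these tables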;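 note: calls also rest on retests at 20 µM and on dose response follow-up; 0% = protein and probe with vehicle and 100% = probe without protein; strong numbers were not always called active; many hits fall short of the cut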
# Rce1 inhib: inhibitors of yeast Ras-converting enzyme; AID 2563; Q03530; calls only; hit rate 0.27% among 290,000; yeast membranes, quenched prenylated peptide cleavage fluorescence;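 active = fall in fluorescence gain of 50% or more versus controls, with final raw signal at or below 3038400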;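 note: plate controls were neutral control wells for no effect and wells lacking membranes for full effect; tested at 10 µM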
# HIV Env fusion: inhibitors of HIV Env-mediated cell fusion; inhibition, % at 12.3 µM; HeLa-JRFL Env/CEM21 cell fusion, luciferase; hit rate 1.1% among 360,000; AID 651610;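 active = mean replicate inhibition score of at least 50 and every replicate individually at or above 50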;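 note: 0% = plate neutral controls and 100% = maraviroc near 300 nM; one replicate is shown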
# CSC inhib: blocks cancer stem cells. cancer stem cell-like cells viability, luminescence. inhibition, % at 7.5 µM. hit rate 1.1% among 300,000. AID 2717;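 active = mean at 75% or more and at least half the replicates too; tested in HMLE shEcad cells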;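 note: 0% = median of negative and 100% = median of positive control wells; the first replicate is given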
# MT1-MMP act inh: inhibitors of human MT1-MMP activation. GFP/RFP ratio change, % at 20 µM. HT1080 RFP-PRO-GFP cells, GFP/RFP ratio fluorescence, overnight; percent of plate control window, DMSO zero. P50281. hit rate 0.061% among 360,000;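 active = GFP/RFP ratio change of at least 30% with cell ATP level not reduced by more than half and red fluorescence within 50% of control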; note: strong numbers were not always called active
#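 Assay system: RFP-PRO-GFP reporter HT1080 cells; read-out basis: GFP/RFP fluorescence ratio; benchmarks: DMSO wells and RFP-L50D-GFP cells; doses: 20 µM single dose, 1% DMSO; schedule: overnight cell settling, then overnight compound exposure, 37 °C, 5% CO2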
# Yeast UUG start: modulators of start codon recognition fidelity in yeast; S. cerevisiae UUG-firefly luciferase reporter, luminescence/redox ratio; activity score, % at 18.7 µM; hit rate 0.13% among 350,000; AID 602363;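 active = replicate mean at a twofold rise or more, about +100% in these data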;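 note: firefly luciferase made from a UUG start codon reports start codon fidelity; reporter light over untreated wells divided by growth signal over untreated wells; some hits fall short of that in this replicate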
# PABP polyA inh: blocks human PABP binding to poly(A) RNA | P11940 | fluorescence polarization | inhibition, % at 35 µM | hit rate 1% among 290,000 | AID 2014;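 active = 50% or more with normal probe brightness, or confirmed in later tests; about a fifth of its hits are not listed in these tables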;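 note: calls also rest on retests at 20 µM and on dose response follow-up; controls were probe without protein and protein plus probe with vehicle; some compounds called inactive have numbers as strong as hits; many hits fall short of the cut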
# Target sequence (P11940 whole entry, looked up): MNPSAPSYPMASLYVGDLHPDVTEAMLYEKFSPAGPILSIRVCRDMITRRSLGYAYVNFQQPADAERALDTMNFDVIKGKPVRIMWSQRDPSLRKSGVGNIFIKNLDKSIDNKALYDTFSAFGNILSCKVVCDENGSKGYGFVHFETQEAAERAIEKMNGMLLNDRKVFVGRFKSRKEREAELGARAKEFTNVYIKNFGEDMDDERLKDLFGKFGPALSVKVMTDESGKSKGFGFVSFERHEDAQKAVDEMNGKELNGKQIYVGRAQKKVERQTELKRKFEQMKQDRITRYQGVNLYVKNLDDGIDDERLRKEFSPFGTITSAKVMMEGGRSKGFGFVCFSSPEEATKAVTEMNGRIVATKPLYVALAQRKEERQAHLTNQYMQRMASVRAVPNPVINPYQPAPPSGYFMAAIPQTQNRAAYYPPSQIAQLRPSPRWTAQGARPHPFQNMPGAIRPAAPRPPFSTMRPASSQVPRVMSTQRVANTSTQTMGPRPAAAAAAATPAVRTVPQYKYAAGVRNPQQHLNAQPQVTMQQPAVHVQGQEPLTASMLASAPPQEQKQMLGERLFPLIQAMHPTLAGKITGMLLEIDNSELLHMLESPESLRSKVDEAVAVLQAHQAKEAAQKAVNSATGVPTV
# MT1-MMP act inh RFP: second read-out of MT1-MMP act inh, no call of its own (marks repeat the call); RFP signal change, %; measured here: RFP expression control read;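 0 = vehicle wells; hits needed this value within 50% of zero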
# * hit, by the source's call; i = inactive; nt = not tested or not shown.
1	O=C(O)c1ccc(CSc2nc3ccccc3[nH]2)cc1
2	Cc1cc(=O)oc2c(C)c3occc3cc12
3	CC(Oc1ccccc1)C(=O)Nc1c2c(nn1-c1ccccc1)CS(=O)C2 (configuration not stated)
4	Cc1cccc(N=C2Sc3nc4c(C)c(C)ccc4cc3CN2CCN2CCOCC2)c1
5	Cc1ccccc1/C=N/N=C1/NC(=O)CCS1
6	CC(=O)Nc1ccc(C(=O)n2nc(C)cc2C)cc1
7	CCOC(=O)C1CCN(C(=O)C(C)Sc2ccc(Cl)cc2)CC1 (configuration not stated)
8	O=C(NCCc1ccc([N+](=O)[O-])cc1)c1ccccc1
9	O=C(NCc1cccs1)C1CCN(S(=O)(=O)c2ccccc2F)CC1
10	O=C(COC(=O)c1cccc([N+](=O)[O-])c1)NCc1cccs1
screen / no. | 1 | 2 | 3 | 4 | 5 | 6 | 7 | 8 | 9 | 10
eIF4H FP inh | -1 | 2 | -8 | 3 | -12 | -4 | 3 | 12 | -4 | -1
Rce1 inhib | i | i | i | i | nt | i | i | i | i | i
HIV Env fusion | -3 | -14 | 25 | nt | -5 | -3 | nt | 1 | 11 | -4
CSC inhib | -9 | -2 | 6 | nt | -9 | -18 | 8 | -8 | -6 | 2
MT1-MMP act inh | 6 | -3 | -2 | 1 | -2 | 7 | 3 | 2 | 1 | 1
MT1-MMP act inh RFP | 5 | 2 | 1 | -2 | -3 | 6 | 1 | 0 | 4 | 1
Yeast UUG start | -24 | -18 | -12 | -6 | nt | nt | -1 | nt | nt | nt
PABP polyA inh | 6 | -1 | 6 | -5 | 0 | 2 | 7 | 22 | -8 | -11

11	Cc1cc(C)c(S(=O)(=O)Nc2cccnc2)c(C)c1
12	O=C(Nc1ccccc1)c1nc[nH]c1C(=O)NCc1ccccc1
13	CCOc1ccccc1N1CC(C(=O)N(CC)CC(=O)Nc2ccc3c(c2)OCCO3)CC1=O (configuration not stated)
14	COc1ccc(C(=O)NN)cc1COc1ccc(Br)cc1
15	C#Cc1ccc([C@@H]2C=C(C(=O)NCc3ccccc3)O[C@H](OCC)[C@H]2CCCO)cc1
16	COc1ccccc1N1CCN(C(=O)c2cc(-c3ccc(F)cc3)[nH]c2C)CC1
17	Cc1ccc(C)c(NC(=S)NC(C)C(c2ccccc2)N2CCN(C)CC2)c1 (configuration not stated)
18	CCC(C(=O)OCC(=O)Nc1cc(Cl)ccc1Cl)c1ccccc1 (configuration not stated)
19	COc1ccc(/C=N/OCC(=O)NC(c2ccccc2)c2ccccc2)c(OC)c1
20	CC(=O)Nc1ccc(CN2C(=O)C(Cc3ccccc3)ON=C2c2cccc(F)c2)cc1 (configuration not stated)
screen / no. | 11 | 12 | 13 | 14 | 15 | 16 | 17 | 18 | 19 | 20
eIF4H FP inh | -6 | nt | nt | -7 | -1 | 48 | 11 | -6 | 10 | nt
Rce1 inhib | i | nt | i | i | i | i | i | i | i | nt
HIV Env fusion | -16 | 0 | -10 | -6 | -30 | 11 | 0 | -4 | 5 | 23
CSC inhib | -9 | 10 | -6 | 18 | -11 | 1 | -8 | -17 | 20 | nt
MT1-MMP act inh | 1 | 7 | -2 | -3 | 3 | -3 | -18 | 0 | -11 | 5
MT1-MMP act inh RFP | 6 | 7 | 1 | 1 | -3 | -6 | -7 | 0 | -22 | -1
Yeast UUG start | -16 | -26 | -12 | -4 | -11 | 0 | nt | -22 | 3 | -2
PABP polyA inh | -4 | nt | nt | -6 | 3 | 20 | -2 | -8 | 17 | nt

21	O=C(c1cc2c(=O)n3ccccc3nc2s1)N1CCN(c2cccc(Cl)c2)CC1
22	O=C(NCc1ccc2c(c1)OCO2)C1CCC(CNc2c(N3CCCCC3)c(=O)c2=O)CC1 (configuration not stated)
23	COc1ccccc1NS(=O)(=O)c1ccc2ccccc2c1
24	O=C(c1ccccc1F)N(Cc1ccc(F)cc1)C1CCS(=O)(=O)C1 (configuration not stated)
25	O/N=C/Cc1[nH]c2ccccc2c1-c1ccccc1
26	CC(C)Cc1cc(C(=O)NCCCN2CCOCC2)no1
27	CNc1ccc(N=Nc2cccc3ncccc23)cc1
28	CC(=O)c1ccc2c(c1)C1C=CCC1C(c1cc3c(cc1Br)OCO3)N2 (configuration not stated)
29	COc1ccccc1N1CCN(CC(=O)c2c(C)[nH]c3cc(C)ccc23)CC1
30	CC(C)CCSc1nnc(N)s1
screen / no. | 21 | 22 | 23 | 24 | 25 | 26 | 27 | 28 | 29 | 30
eIF4H FP inh | -3 | 3 | -12 | -4 | 1 | 2 | nt | nt | -1 | -3
Rce1 inhib | i | i | i | i | i | i | nt | i | i | i
HIV Env fusion | 1 | -8 | 11 | nt | 4 | -5 | -23 | -25 | nt | -4
CSC inhib | 2 | 0 | 1 | -7 | -6 | -17 | nt | 52 | -1 | -9
MT1-MMP act inh | 4 | 4 | 2 | 1 | -1 | 2 | 16 | -1 | 0 | 1
MT1-MMP act inh RFP | 0 | 4 | -3 | 5 | -2 | 3 | -7 | -11 | 1 | 1
Yeast UUG start | 1 | -10 | -8 | 6 | -13 | -18 | 9 | -11 | 9 | nt
PABP polyA inh | -5 | -8 | -6 | 9 | 5 | -2 | nt | nt | -6 | -5

31	Cc1cccc(N2CC(c3nc4ccccc4[nH]3)CC2=O)c1 (configuration not stated)
32	COc1ccccc1CNC(=O)CSc1n[nH]c(N)n1
33	O=c1c2c([nH]c3ccc(Br)cc13)CCCC2
34	COc1cccc(-c2cc(C(=O)NCC3CCCO3)c3cc(Br)cc(C)c3n2)c1 (configuration not stated)
35	Cc1ccc(C2(C)NC(=O)N(CC(=O)NNC(=O)c3ccoc3C)C2=O)cc1 (configuration not stated)
36	Cc1[nH]n(-c2ccccc2)c(=O)c1C(=O)c1cccc(F)c1
37	CCCNC(=O)C1(C)CCCN(C(=O)c2ccccc2F)C1 (configuration not stated)
38	Cc1ccc(NC(=O)COC(=O)C2CC3CCCC(C2)C3=O)c([N+](=O)[O-])c1 (configuration not stated)
39	CCOC(=O)c1c(C)[nH]c(C(=O)OCC(=O)c2ccc3c(c2)NC(=O)CO3)c1C
40	COCCNC(=S)N=Nc1c(O)[nH]c2ccc([N+](=O)[O-])cc12
screen / no. | 31 | 32 | 33 | 34 | 35 | 36 | 37 | 38 | 39 | 40
eIF4H FP inh | -6 | 0 | -1 | -13 | nt | -1 | nt | nt | nt | 20
Rce1 inhib | nt | i | i | i | i | i | nt | nt | i | i
HIV Env fusion | 16 | 22 | nt | nt | -39 | 24 | -6 | 5 | 0 | -16
CSC inhib | 19 | -6 | -7 | 2 | -3 | -2 | nt | -12 | 5 | 0
MT1-MMP act inh | 5 | -2 | -1 | -1 | 3 | -6 | 3 | 1 | 1 | 14
MT1-MMP act inh RFP | 2 | 2 | 0 | -3 | 1 | -1 | 8 | 0 | 3 | 9
Yeast UUG start | nt | -5 | -7 | -13 | -8 | nt | -10 | -10 | -15 | -8
PABP polyA inh | 2 | 8 | 12 | -6 | nt | 9 | nt | nt | nt | 4

41	COCCN(C(=O)CSCC(=O)Nc1cccc(C)c1)c1c(N)n(Cc2ccccc2)c(=O)[nH]c1=O
42	CCN(CC)CCCNC(=O)CN1C(=O)CSc2ccc(S(=O)(=O)N3CCOCC3)cc21
43	CCOC(=O)C1=NOC(CNC(=O)C2=NOC(CNC(=O)c3c(-c4ccccc4Cl)noc3C)C2)C1 (configuration not stated)
44	O=CNCc1nc2ccccc2n1CCCc1ccccc1
45	COC(=O)C1=C(N)Oc2cc(C)n(CC3CCCO3)c(=O)c2C1c1ccc(Cl)c(Cl)c1 (configuration not stated)
46	CC1=NNC(=O)C1Cc1c(Cl)cccc1Cl (configuration not stated)
47	CC(C)C12CN3CC(C(C)C)(CN(C1)C3c1ccccc1O)C2=O (configuration not stated)
48	NS(=O)(=O)c1ccc(CCNC(=O)c2ccccc2F)cc1
49	COc1ccc(N)cc1C#N
50	CC1(C2CC2)NC(=O)N(CC(=O)N2CCN(S(=O)(=O)c3ccc(F)c(F)c3)CC2)C1=O (configuration not stated)
screen / no. | 41 | 42 | 43 | 44 | 45 | 46 | 47 | 48 | 49 | 50
eIF4H FP inh | nt | 5 | 4 | -3 | -1 | nt | 2 | 0 | 11 | nt
Rce1 inhib | i | i | i | i | i | i | i | i | i | nt
HIV Env fusion | -6 | 8 | nt | 9 | 21 | 5 | -97 | -101 | -34 | 1
CSC inhib | -5 | 6 | -9 | -17 | 5 | -6 | 2 | -14 | 5 | nt
MT1-MMP act inh | 0 | -1 | 0 | -3 | 3 | 1 | -4 | 1 | 1 | 3
MT1-MMP act inh RFP | -2 | 3 | -4 | -1 | -3 | 2 | 2 | 4 | 5 | 2
Yeast UUG start | nt | -10 | 4 | -12 | 6 | -25 | -2 | -17 | -6 | 7
PABP polyA inh | nt | 5 | -5 | 2 | -3 | nt | -8 | 5 | 30 | nt

51	CCOc1cc(N2CCOCC2)c(OCC)cc1NC(=O)C1=COCCO1
52	Cc1ccc(NC(=O)C2=C(O)CCn3c2nc2ccccc23)cc1
53	CCc1ccc(CNC(=O)C2CCCN(c3nnc(C)c4c(C)n(-c5ccccc5)nc34)C2)cc1 (configuration not stated)
54	COc1cccc(C(=O)NCCCNC(=O)c2cccnc2)c1
55	COc1ccc(NC2CS(=O)(=O)CC2OC(=O)c2ccc(F)cc2)cc1 (configuration not stated)
56	Cc1cc(C)n(-c2cc(N3CCN(C(=O)c4cccc(F)c4)CC3)ccc2[N+](=O)[O-])n1
57	CCN(CC)C(=O)c1ccc(S(=O)(=O)Cc2ccc(C)cc2)c([N+](=O)[O-])c1
58	O=C(CN1C(=O)c2cccc3cccc1c23)NCc1ccc2c(c1)OCO2
59	O=C(Cc1ccccn1)Nc1ccccc1
60	CN(/N=C/c1cc(Br)cc(Br)c1O)c1ccccc1
screen / no. | 51 | 52 | 53 | 54 | 55 | 56 | 57 | 58 | 59 | 60
eIF4H FP inh | nt | -2 | 1 | -4 | 1 | 1 | 1 | -2 | -2 | -8
Rce1 inhib | nt | i | i | i | i | i | i | i | i | i
HIV Env fusion | -15 | nt | 37 | 2 | -8 | -6 | 17 | -30 | -9 | 6
CSC inhib | nt | -12 | 5 | -2 | -3 | -6 | -21 | nt | -6 | 36
MT1-MMP act inh | 3 | -11 | -16 | 0 | -5 | 4 | -2 | -5 | 6 | 5
MT1-MMP act inh RFP | 1 | -16 | -13 | 2 | -4 | -1 | -8 | -2 | 0 | 3
Yeast UUG start | 1 | -12 | 8 | -17 | -10 | -9 | -2 | -7 | -25 | -20
PABP polyA inh | nt | -3 | -4 | 8 | -4 | 1 | 6 | -6 | 30 | -1

61	CCc1ccc(/C=C2\SC(=S)N(CCC(=O)N3CCN(C)CC3)C2=O)cc1
62	CCN(c1ccccc1)S(=O)(=O)c1ccc(Cl)c(NC(=O)COC(=O)c2ccc(Cl)c(N)c2)c1
63	OC(COC(c1ccc(Cl)cc1)c1ccc(Cl)cc1)CN1CCc2ccccc2C1 (configuration not stated)
64	CCCCNC(=O)Nc1nnc(-c2ccc(OCC)cc2)o1
screen / no. | 61 | 62 | 63 | 64
eIF4H FP inh | -14 | -10 | -13 | -9
Rce1 inhib | i | i | i | nt
HIV Env fusion | 14 | 0 | 46 | nt
CSC inhib | 56 | -4 | 36 | 12
MT1-MMP act inh | 0 | -1 | -9 | 1
MT1-MMP act inh RFP | -7 | -2 | -11 | 1
Yeast UUG start | 1 | nt | -1 | -2
PABP polyA inh | 10 | 0 | -11 | -7
